# Bioassay records deposited in PubChem BioAssay by Broad Institute.
# AF4-AF9 inh = inhibitors of AF4 peptide binding to AF9, primary screen, biochemical, AlphaScreen, biotin-AF4 peptide, FLAG-AF9, single point. Protein AF-9 (Homo sapiens), P42568. inhibition, % at 10 µM. 350,000 tested, 0.47% active;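 active means every replicate reaching a set inhibition limit, whatever the replicate mean, cut at about 25% in these data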;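 further: 0% = plate neutral control median and 100% = total signal loss; the record names both 10 and 1 µM as test concentration; the first replicate is given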
# Target sequence (P42568 whole entry, looked up): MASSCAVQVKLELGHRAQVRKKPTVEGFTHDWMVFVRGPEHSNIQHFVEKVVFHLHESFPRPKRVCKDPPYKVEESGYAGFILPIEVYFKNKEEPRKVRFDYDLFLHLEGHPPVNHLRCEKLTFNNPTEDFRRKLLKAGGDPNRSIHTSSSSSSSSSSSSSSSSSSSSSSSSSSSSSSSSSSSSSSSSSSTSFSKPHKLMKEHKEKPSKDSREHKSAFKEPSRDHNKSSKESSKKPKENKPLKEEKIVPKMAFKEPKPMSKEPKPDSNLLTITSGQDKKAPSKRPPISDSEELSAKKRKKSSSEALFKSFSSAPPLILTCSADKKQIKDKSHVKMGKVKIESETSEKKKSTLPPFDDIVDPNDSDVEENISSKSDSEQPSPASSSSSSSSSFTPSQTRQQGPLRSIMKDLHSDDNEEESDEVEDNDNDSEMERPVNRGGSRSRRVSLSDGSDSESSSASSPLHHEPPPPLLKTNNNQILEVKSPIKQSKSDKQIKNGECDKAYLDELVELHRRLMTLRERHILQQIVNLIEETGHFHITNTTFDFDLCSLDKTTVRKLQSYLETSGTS
# * = called active by the depositor; & = joins results of further samples.
AF4-AF9 inh	mol
6.2	COC(=O)[C@]12CCCCC=C1N(Cc1ccc3c(c1)OCO3)C(=O)[C@H](CC(=O)NCc1ccc(C)o1)C2
1.1	O=C(c1ccccc1)N1CC(=O)N2[C@H](CO)[C@@H](c3ccc(C4=CCCC4)cc3)[C@@H]2C1
-7.2	O=C(Nc1ccccc1F)N1C[C@@H]2[C@H](c3ccccc31)[C@@H](CO)N2C(=O)c1ccccc1F
-0.1	CCC(=O)N[C@@H]1CC[C@H](CCNC(=O)Nc2ccc(C(F)(F)F)cc2)O[C@@H]1CO
3.9	CC(=O)N(C)C[C@@H]1Oc2cc(C#CCC(C)C)ccc2S(=O)(=O)N([C@@H](C)CO)C[C@H]1C
1.8	COc1ccc(C(O)c2nc(-c3cccc(NC(C)=O)c3)cs2)cc1 (stereo not given)
-5.5	C/C=C/c1ccc([C@H]2[C@H]3CN(C(=O)c4ccncc4)CC(=O)N3[C@H]2CO)cc1
-13.7	COc1ccc(NC(=O)N(C)C[C@@H]2Oc3ccc(NC(=O)NC(C)C)cc3CC(=O)N([C@@H](C)CO)C[C@@H]2C)cc1
-5.9	COc1ccc(C#Cc2ccc([C@H]3[C@@H](CO)N4CCCCN(C(=O)Nc5ccc(F)cc5)C[C@@H]34)cc2)cc1
-2.5	COc1ccc(NC(=O)N(C)C[C@@H]2OCc3ccccc3-c3ccccc3C(=O)N([C@H](C)CO)C[C@@H]2C)cc1
10.4	CCN1CCN(Cc2ccc(NC(=O)c3cccc(-c4ccc5nc(NC(=O)C6CC6)sc5n4)c3)cc2C(F)(F)F)CC1
0.3	C[C@@H]1CN([C@@H](C)CO)C(=O)c2cccc(NS(=O)(=O)c3cccs3)c2O[C@@H]1CN(C)Cc1ccc(C(=O)Nc2ccccc2N)cc1
-5.3	CCCNC(=O)C[C@@H]1C[C@H]2c3cc(NS(C)(=O)=O)ccc3O[C@H]2[C@@H](CO)O1
-5.8	COc1ccccc1C#Cc1ccc([C@@H]2[C@@H](CO)N3CCCCN(C(=O)C4CCCC4)C[C@@H]23)cc1
-0.8	C[C@H](CO)N1C[C@H](C)[C@@H](CN(C)S(=O)(=O)c2ccccc2)Oc2c(NS(=O)(=O)c3ccc(Cl)cc3)cccc2C1=O
-0.5	NCC[C@H]1CC[C@H](NS(=O)(=O)Cc2ccccc2)[C@H](CO)O1
-0.7	O=C(C[C@@H]1C=C[C@@H](NC(=O)c2cccnc2)[C@@H](CO)O1)NCc1ccc(Cl)c(Cl)c1
0.2	Cc1cc(F)ccc1-c1cc(C(=O)NCc2cccs2)[nH]n1
-2.5	COc1ccccc1-c1ccc([C@H]2[C@H]3CN(C(=O)CN4CCOCC4)CCCCN3[C@H]2CO)cc1
0.6	O=C(C[C@H]1CC[C@H]2[C@@H](COC[C@@H](O)CN2C(=O)c2ccc(F)cc2)O1)N1CCCCC1

# As a working copy, 7 of the compounds above.
AF4-AF9 inh	mol
10.4	CCN1CCN(Cc2ccc(NC(=O)c3cccc(-c4ccc5nc(NC(=O)C6CC6)sc5n4)c3)cc2C(F)(F)F)CC1
0.3	C[C@@H]1CN([C@@H](C)CO)C(=O)c2cccc(NS(=O)(=O)c3cccs3)c2O[C@@H]1CN(C)Cc1ccc(C(=O)Nc2ccccc2N)cc1
-5.3	CCCNC(=O)C[C@@H]1C[C@H]2c3cc(NS(C)(=O)=O)ccc3O[C@H]2[C@@H](CO)O1
-5.8	COc1ccccc1C#Cc1ccc([C@@H]2[C@@H](CO)N3CCCCN(C(=O)C4CCCC4)C[C@@H]23)cc1
-0.8	C[C@H](CO)N1C[C@H](C)[C@@H](CN(C)S(=O)(=O)c2ccccc2)Oc2c(NS(=O)(=O)c3ccc(Cl)cc3)cccc2C1=O
-0.5	NCC[C@H]1CC[C@H](NS(=O)(=O)Cc2ccccc2)[C@H](CO)O1
-0.7	O=C(C[C@@H]1C=C[C@@H](NC(=O)c2cccnc2)[C@@H](CO)O1)NCc1ccc(Cl)c(Cl)c1

# The list continues.
AF4-AF9 inh	mol
-5.6	Cc1cccc(S(=O)(=O)N2CC[C@@H]3[C@H](CO)Nc4ccc(C#Cc5ccc(F)cc5)cc4[C@@H]32)c1
-1.7	C/C=C/c1ccccc1[C@H]1[C@@H](CO)N(C(=O)Nc2ccccc2)[C@H]1C#N
1.8	COc1ccc(S(=O)(=O)N(C)C[C@H]2Oc3ccc(NC(=O)Cn4cnnn4)cc3CC(=O)N([C@H](C)CO)C[C@@H]2C)cc1
-0.4	N#C[C@H]1[C@@H](c2ccccc2C2=CCCCC2)[C@@H](CO)N1C(=O)Nc1ccccc1F
4.0	O=C(NCC1CC1)[C@H]1[C@H](CO)[C@H]2Cn3c(ccc(-c4cccc(F)c4)c3=O)[C@H]2N1CC1CCCC1
-1.7	C[C@@H]1CN([C@@H](C)CO)C(=O)c2cc(C3=CCCC3)cnc2O[C@@H]1CN(C)C(=O)Nc1ccc(C(F)(F)F)cc1
-1.7	O=C(Nc1ccccc1Cl)N1C[C@@H]2[C@H](c3ccccc31)[C@@H](CO)N2Cc1ccncc1
-2.5	CN1CCN(C(=O)C[C@H]2CC[C@@H]3[C@H](COC[C@@H](O)CN3Cc3ccc4c(c3)OCO4)O2)CC1
4.1	CCC(=O)N1C[C@@H](C)[C@@H](OC)CN(C)C(=O)c2ccc(NC(=O)Nc3ccc(Cl)cc3)cc2OC[C@H]1C
-13.0	COc1ccc(CN(C)C[C@@H]2Oc3ccc(NC(=O)Cc4ccccc4)cc3CC(=O)N([C@H](C)CO)C[C@H]2C)cc1
-0.1	N#C[C@@H]1[C@@H](c2ccccc2)[C@H](CO)N1S(=O)(=O)c1cccc(F)c1
1.1	CCOC(=O)N(C)C[C@H]1OCc2ccccc2-c2c(n(C)c3ccccc23)C(=O)N([C@H](C)CO)C[C@@H]1C
0.0	O=C(CN1CCOCC1)N[C@H]1CC[C@H](CCNC(=O)C2CCCC2)O[C@H]1CO
1.5	CCC(=O)N1[C@@H](CO)[C@@H](c2ccccc2)[C@@H]1CN(C)C(=O)c1ccccc1F
-3.3	O=C1C=CCCN1C(=O)/C=C/c1ccccc1Cl
-3.2	C[C@H]1CN([C@@H](C)CO)C(=O)Cc2cc(NC(=O)Nc3cccc4ccccc34)ccc2O[C@H]1CN(C)S(=O)(=O)c1ccc(F)cc1
-1.4	CCC(=O)N(C)C[C@@H]1Oc2cc(-c3ccc(F)cc3)ccc2S(=O)(=O)N([C@@H](C)CO)C[C@H]1C
-2.1	CCCNC(=O)N1CC2(C1)[C@H](c1ccccc1)[C@H](CO)N2Cc1ccccn1
0.6	C[C@@H]1CCCCO[C@@H](CN(C)C(=O)c2ccccc2)[C@H](C)CN([C@H](C)CO)C(=O)c2cc(NC(=O)Nc3ccc(F)cc3)ccc2O1
-3.5	O=C(C[C@H]1CC[C@@H]2[C@H](COC[C@@H](O)CN2Cc2ccc(F)cc2)O1)NCc1ccncn1

# Retrieved one by one from the entries so far (two):
AF4-AF9 inh	mol
-1.7	C[C@@H]1CN([C@@H](C)CO)C(=O)c2cc(C3=CCCC3)cnc2O[C@@H]1CN(C)C(=O)Nc1ccc(C(F)(F)F)cc1
-13.0	COc1ccc(CN(C)C[C@@H]2Oc3ccc(NC(=O)Cc4ccccc4)cc3CC(=O)N([C@H](C)CO)C[C@H]2C)cc1

# Continuation:
AF4-AF9 inh	mol
-0.6	CCOC(=O)C1(C)CCCN1C(=O)c1ccccc1OC (stereo not given)
-14.3	C/C=C/c1cnc2c(c1)C(=O)N([C@H](C)CO)C[C@H](C)[C@H](CN(C)Cc1cncnc1)O2
-1.1	Cc1noc(C)c1NC(=O)Nc1ccc2c(c1)C(=O)N([C@@H](C)CO)C[C@H](C)[C@H](CN(C)Cc1ccncc1)O2
-3.3	Cc1cc(C)n2c(Nc3c(C)cccc3C)c(-c3cccnc3)nc2n1
0.1	COc1ccc(CN(C)C[C@@H]2OCCCC[C@H](C)Oc3ccc(NC(=O)Nc4c(C)noc4C)cc3C(=O)N([C@H](C)CO)C[C@@H]2C)cc1
7.1	O=C(NCc1ccccc1)[C@@]1(CCS(=O)(=O)c2ccccc2)N=C(c2ccc(OCCCO)cc2)O[C@H]1c1ccccc1
1.7	CN1CCN(C(=O)C2Cc3c(-c4ccc5c(c4)OCO5)ccnc3O2)CC1 (stereo not given)
-1.2	O=C(C[C@H]1CC[C@H]2[C@@H](COC[C@H](O)CN2C(=O)c2ccccn2)O1)N1CCN(c2ccccc2)CC1
-12.6	CCOc1cccc(-c2cnc3cccnn23)c1
6.2	COc1ccc(NC(=O)N(C)C[C@@H]2OCc3ccccc3-c3c(n(C)c4ccccc34)C(=O)N([C@@H](C)CO)C[C@H]2C)c(OC)c1
-1.3	C[C@@H]1CN([C@@H](C)CO)C(=O)c2cc(-c3cccc(F)c3)cnc2O[C@H]1CN(C)S(C)(=O)=O
-0.1	CC(C)NC(=O)N(C)C[C@@H]1Oc2cc(-c3cncnc3)ccc2S(=O)(=O)N([C@@H](C)CO)C[C@H]1C
-0.8	C[C@@H]1CN([C@H](C)CO)C(=O)c2cc(NC(=O)CCCN(C)C)ccc2O[C@@H](C)CCCCO[C@@H]1CN(C)C(=O)NC1CCCCC1
-0.7	O=C(N[C@H]1CC[C@H](CC(=O)N2CCC(Cc3ccccc3)CC2)O[C@H]1CO)c1cnccn1
-8.4	O=C(C[C@@H]1C=C[C@@H](NC(=O)CC2CC2)[C@H](CO)O1)NCc1ccc(Cl)cc1
-0.8	CO[C@@H]1CN(C)C(=O)c2ccc(NC(C)=O)cc2OC[C@@H](C)N(CCC(F)(F)F)C[C@H]1C
6.3	O=C1CCC[C@@H]2C[C@@]3(C[C@@H]4CCN1[C@H]24)Nc1cc(Cl)ccc1NC3=NC1CCCCC1
22.0	CC(C)CC#Cc1ccc([C@H]2[C@H](CO)N3CCCCN(S(=O)(=O)Cc4ccccc4)C[C@@H]23)cc1
-1.2	CNC(=O)C[C@@H]1CC[C@H]2[C@H](COc3ccc(NC(=O)c4ccccc4OC)cc3C(=O)N2C)O1
-2.1	Cc1noc(C)c1S(=O)(=O)Nc1ccc2c(c1)CC(=O)N([C@@H](C)CO)C[C@H](C)[C@H](CN(C)C(=O)NC1CCCCC1)O2
-4.1	CCCC(=O)N1CC2(C1)CN(C(=O)COC)[C@@H](CO)c1c2c2ccc(OC)cc2n1C
-7.0	C[C@@H]1CN([C@H](C)CO)C(=O)c2cc(NC(=O)Cc3cn(C)c4ccccc34)ccc2O[C@@H]1CN(C)S(=O)(=O)c1ccc(F)cc1
-2.9	CCC(=O)N(C)C[C@H]1Oc2ncc(C#CCC(C)C)cc2C(=O)N([C@@H](C)CO)C[C@@H]1C
5.2	FC(F)(F)c1ccccc1CN1CCCc2nc(-c3ccccc3)ccc21
-1.5	O=C(N[C@H]1CC[C@H](CCn2cc(Cc3ccccc3)nn2)O[C@@H]1CO)c1ccccn1
-1.0	C[C@@H]1CCCCO[C@@H](CN(C)C(=O)NC2CCCCC2)[C@H](C)CN([C@H](C)CO)C(=O)c2cc(NC(=O)c3ccncc3)ccc2O1
1.5	C[C@@H]1CCCCO[C@H](CN(C)S(=O)(=O)c2ccc(Cl)cc2)[C@H](C)CN([C@@H](C)CO)C(=O)c2cc(NS(=O)(=O)c3cn(C)cn3)ccc2O1
-5.9	C[C@H](CO)N1C[C@H](C)[C@@H](CN(C)Cc2cccc(C(=O)O)c2)Oc2ncc(C#CC(C)(C)O)cc2C1=O
4.2	CCOc1ccccc1C(=O)OCC(=O)Nc1cc(S(=O)(=O)N2CCOCC2)ccc1C
-3.8	CCCCS(=O)(=O)NC(=O)C1(C)CCN1C(=O)C/C=C/c1ccccc1 (stereo not given)
6.3	CN1OC[C@@H]2CN(C(=O)Nc3ccccc3)[C@H](c3ccc(N4CCCCC4)cc3)C[C@@H]21
-6.1&2.4	C[C@@H]1CN([C@H](C)CO)C(=O)c2cc(NC(=O)Nc3ccc(C(F)(F)F)cc3)ccc2O[C@H]1CN(C)C(=O)Nc1ccc(F)cc1
-1.4	CC1(C(=O)Nc2ccc(F)c(Cl)c2)Cc2c(-c3ccccc3)ccnc2O1 (stereo not given)
-9.6	COc1ccc(C(=O)Nc2nc(OCC(F)(F)F)cnc2/C=C\c2ccccc2)c(OC)c1
-0.3	COc1ccc(-c2ccc3c(n2)CCCN3S(=O)(=O)c2ccc(F)cc2)cc1
-13.5	COc1ccccc1S(=O)(=O)N[C@@H]1CC[C@H](CCNC(=O)C2CCCC2)O[C@@H]1CO
-0.9	Cc1noc(C)c1NC(=O)N(C)C[C@@H]1OCCCC[C@H](C)Oc2ccc(NS(=O)(=O)c3ccc(F)cc3)cc2C(=O)N([C@@H](C)CO)C[C@H]1C
0.2	N#C[C@H]1[C@@H](c2ccc(C#Cc3ccccc3F)cc2)[C@@H](CO)N1C(=O)C1CCCC1
-4.0	CC(C)NC(=O)N(C)C[C@@H]1OCCCC[C@H](C)Oc2ccc(NC(=O)Nc3ccc(F)cc3)cc2C(=O)N([C@H](C)CO)C[C@@H]1C
-1.9	CO[C@@H]1CN(C)C(=O)c2cc(NS(C)(=O)=O)ccc2OC[C@@H](C)N(CC2CCCCC2)C[C@H]1C
-2.1	C[C@@H]1CN([C@H](C)CO)C(=O)Cc2cc(NS(=O)(=O)c3ccc(F)cc3)ccc2O[C@H]1CN(C)C(=O)NC1CCCCC1
-2.7	C[C@@H]1CN([C@H](C)CO)C(=O)c2cc(C#CCN(C)C)cnc2O[C@@H]1CN(C)Cc1ccccn1
5.0	COc1ccccc1-c1cnc(C(O)c2ccc(F)c(C)c2)[nH]1 (stereo not given)
-18.3	CNC[C@@H]1Oc2ccc(NS(=O)(=O)c3ccc(F)cc3)cc2CC(=O)N([C@@H](C)CO)C[C@@H]1C
0.8	COc1ccc(NC(=O)Nc2ccc3c(c2)C(=O)N([C@@H](C)CO)C[C@@H](C)[C@@H](CN(C)C(=O)Nc2ccc(F)cc2)OCCCC[C@@H](C)O3)cc1
-3.9	CCc1cc2c(nc1CC)CCCN2S(=O)(=O)c1ccc(OC)cc1
0.8	CCN(C[C@H]1N[C@H](CO)[C@@H]1c1ccc(-c2cccc(F)c2)cc1)C(=O)COC
-22.6	C[C@@H]1CN([C@H](C)CO)C(=O)c2cccc(N(C)C)c2O[C@H]1CN(C)C

# Some of the compounds tested; the hit share may differ from the screen's.
